# Biofilm kill mix = mixture kills Candida albicans biofilm cells; C. albicans biofilm persisters + clotrimazole, fluorescence viability; primary screen in compound mixtures of four per well; inhibition, % at 7.6 µM; hit rate 0.02% among 120,000;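 active means inhibition above 30.3% in the primary screen of four-compound pools, then above 30% when the compound was retested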;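 further: compounds exposed to preformed 24 h biofilms for 48 h; the number belongs to the whole pool; some results filed as inactive read as strong as hits; inactives centre near 12; 0% = biofilm with clotrimazole alone and 100% = kill control; retested singly at about 60 µM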
#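 Test system: C. albicans CAF4-2 wild-type biofilms; buffer or medium: RPMI/MOPS medium, pH 7.0; schedule: 24 h biofilm formation, then 48 h compound exposure, 37 °C; detection: Alamar Blue fluorescence; measure: percent inhibition of biofilm viability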
# The depositor's hits bear a star. A portion of the library. The share of hits here may be higher or lower than overall.
Compound,Biofilm kill mix
COc1cccc2c1CCC(NC(C)=O)C2=O (stereo unspecified),12.0
O=[N+]([O-])c1ccc(N=NN(CCO)CCO)cc1,11.5
CC(=O)NC(Cc1ccc(F)cc1)C(=O)NC1CCN(c2ncccc2[N+](=O)[O-])CC1 (stereo unspecified),12.7
O=[N+]([O-])c1ccc(N2CCN(S(=O)(=O)c3ccc(Cl)c(Cl)c3)CC2)cc1NCCN1CCOCC1,8.3
Cc1c(C#N)c(O)n(CCO)c(=O)c1N=Nc1ccc2c(c1)COC2=O,13.9
COc1cccc(NC(=O)c2ccc3snnc3c2)c1,13.6
COC(=O)CC(NC(=O)c1cccs1)c1ccc(OC)c(OC)c1 (stereo unspecified),18.5
CCOC(=O)/C(C#N)=C/c1cn(CCC(=O)O)nc1-c1ccc(Br)cc1,11.3

# Later entries.
Compound,Biofilm kill mix
COCCCNC(=O)c1cc(Sc2ccc(F)cc2)nc2ccccc12,9.7
O=C(NCCCn1ccnc1)c1nn2c(C(F)(F)F)cc(-c3ccccc3)nc2c1Cl,15.0
Cc1c(-c2ccccc2)oc2c(C(=O)N3CCN(c4ccc([N+](=O)[O-])cc4)CC3)cccc2c1=O,15.3
Cc1nn(-c2cccc([N+](=O)[O-])c2)c(N)c1-c1ccccc1,-8.3
N#Cc1cc([N+](=O)[O-])ccc1N1CCCC1,12.6
O=C1CC(Sc2ccc(Cl)cc2)C(=O)N1c1ccc2c(c1)OCCO2 (stereo unspecified),0.9
OCCN(CCO)c1ccc2ccccc2c1,0.8
CC1=C(C)CC(C(=O)N2CCN(Cc3ccc4c(c3)OCO4)CC2)C(C(=O)O)C1 (stereo unspecified),20.4

# Continuation:
Compound,Biofilm kill mix
Cc1cc(C(=O)OC(C(=O)Nc2ccc(C)c(Cl)c2)c2ccccc2)c(C)o1 (stereo unspecified),18.3
O=S(=O)(c1cccc(-c2n[nH]c(=S)n2Cc2ccccc2)c1)N1CCOCC1,22.3
O=C(c1ccccc1)N1CCCCC(Sc2nnnn2-c2ccccc2)C1=O (stereo unspecified),15.7
CCC(C)n1c(=N)c(C#N)cc2c(=O)n3cccc(C)c3nc21 (stereo unspecified),3.1
COc1cccc(C(=O)NNC(=O)C(=O)N2CCCCC2)c1,7.5
CCOc1cc(NC(=S)NCc2ccco2)c(OCC)cc1NC(=O)C1CC1,15.6
O=C(/C=C/Nc1nccs1)C(F)(F)Cl,-1.9
N/C(=N\OC(=O)N1CCOCC1)c1ccc(Br)cc1,7.0

# The results go on.
Compound,Biofilm kill mix
COc1ccc(OCC(=O)N(Cc2ccco2)C2CCS(=O)(=O)C2)cc1 (stereo unspecified),-2.0
CC(NC(=O)COC(=O)C1=COCCO1)C12CC3CC(CC(C3)C1)C2 (stereo unspecified),15.6
COc1ccc2nc(Cl)c(C3CC(c4ccco4)=NN3C(=O)CCC(=O)O)cc2c1 (stereo unspecified),23.9
O=C(N/N=C/C=C\c1ccccc1[N+](=O)[O-])c1cccnc1,9.4
COc1ccc(CCN2C(=O)CC(Cc3ccccc3)C2=O)cc1OC (stereo unspecified),24.1
Cc1nc2ccccc2nc1OCc1cccc([N+](=O)[O-])c1,8.1
COc1ccc(OCC(O)CNC(=O)c2cccs2)cc1 (stereo unspecified),9.7
Cc1nn2c(-c3ccccn3)ccnc2c1Br,-3.0

# (continued)
Compound,Biofilm kill mix
Cc1ccccc1NC(=O)CCN1CCc2ccccc2C1,-1.8
O=[N+]([O-])c1ccccc1CSc1nc2ccccc2o1,8.1
O=C(COc1nncc2ccccc12)Nc1c(F)c(F)c(F)c(F)c1F,-0.1
Cc1ccc(C(=O)N/C(=C\c2ccco2)C(=O)NCCCn2ccnc2)cc1,19.5
Cc1ccccc1N1CCN(CCCCN2C(=O)C3CCCN3C2=O)CC1 (stereo unspecified),17.0
O=C1CCCC(=O)C1Sc1ccc(Cl)cc1,-27.9
O=C(Nc1ccccc1-c1ccccc1)C(c1ccccc1)c1ccccc1,14.1
COc1cc(/C=N/NC(=O)c2ccc(CN(C)S(=O)(=O)c3ccc(C)cc3)cc2)ccc1O,8.4

# Continuation.
Compound,Biofilm kill mix
Cc1nnc(SCC(=O)Nc2cc(C(C)(C)C)nn2-c2ccccc2)s1,5.9
Cn1c(=O)c2c(nc(-c3ccccc3)n2C)n(Cc2ccccc2)c1=O,1.6
Nc1nnnn1CC(=O)N/N=C/C=C/c1ccccc1,21.9
Cc1cc2ccccc2n1CCC(=O)O,10.1
CC(=O)N1CCN(CC(=O)Nc2ccc3c(c2)CCC3)CC1,-3.2
CCN(CC)S(=O)(=O)c1ccc2c(c1)nc(CCC(=O)O)n2C,29.0
Cc1cc(NC(=O)COC(=O)c2oc3c(ccc4ccccc43)c2C)no1,18.0
NC(=O)CSc1nnc(SCc2ccc(F)cc2)s1,8.8

# 3 structures from above, sorted by molecular weight, falling:
Compound,Biofilm kill mix
CCN(CC)S(=O)(=O)c1ccc2c(c1)nc(CCC(=O)O)n2C,29.0
NC(=O)CSc1nnc(SCc2ccc(F)cc2)s1,8.8
CC(=O)N1CCN(CC(=O)Nc2ccc3c(c2)CCC3)CC1,-3.2

# Carrying on:
Compound,Biofilm kill mix
CN/C(=C/[N+](=O)[O-])NCCSCc1ccc(CN(C)C)o1,6.2
O=C(CNS(=O)(=O)c1ccccc1)OCC(=O)c1ccc([N+](=O)[O-])cc1,22.6
O=C(CSc1nc2nc(-c3cccs3)cc(C(F)(F)F)c2c(=O)[nH]1)Nc1ccc(F)c(F)c1,11.1
COc1ccc(CNC(=O)Nc2ccc(C)c(C)c2)cc1,13.7
O=C(CCS(=O)(=O)c1ccc(Br)s1)Nc1ccccc1Br,2.2
COc1ccc(Cl)cc1N1C(=N)SCC1=O,1.0
CC(C)(C)NC(=O)CSc1nnc(SCC(=O)NC(C)(C)C)s1,18.6
Cc1ccc(-c2nnc(OCc3cccnc3)c3ccccc23)cc1,12.7

# The list continues:
Compound,Biofilm kill mix
O=C(NNC1=NS(=O)(=O)c2ccccc21)C1CC(=O)N(c2ccccc2)C1 (stereo unspecified),25.9
CCc1c(C)sc(NC(=S)Nc2cccnc2)c1C(=O)OC,11.0
Cn1c(=O)[nH]c(=O)c2c1nc(Br)n2CC(O)COc1ccc(Cl)cc1 (stereo unspecified),-2.7
NC(=O)[C@@H]1CCNc2c(I)cc([N+](=O)[O-])cc2C(=O)N[C@@H](CCC(=O)O)C(=O)N[C@@H](CO)C(=O)N1,14.8
CC(=O)NC(=S)Nc1ccc(S(=O)(=O)Nc2nc(C)cc(C)n2)cc1,10.7
CCN(CC)C(=O)COc1ccc(-c2nnc(Nc3ccc(OC)c(C(=O)NC)c3)c3ccccc23)cc1,2.6
Cc1ccc(C(=O)CSc2ccc(-c3ccccc3)nn2)cc1,14.0
COc1ccc(Cn2c(C(F)(F)F)ccc(C(N)=O)c2=O)cc1,-7.5

# Further structures follow.
Compound,Biofilm kill mix
COc1ccc(-n2c(=S)[nH]c3sc4c(c3c2=O)CCN(C)C4)cc1,4.3
COc1ccc(/C=N/n2cnc3c([nH]c4ccccc43)c2=O)cc1CO,18.3
COc1ccc(NC(=S)NCCN2CCC(C)CC2)cc1,6.4
O=C(Nc1cccc(C(F)(F)F)c1)c1cc(Br)cc2c1OCC2,18.3
CC(=O)c1ccc(S(=O)(=O)N2CCNCC2)cc1,16.3
O=C(CS(=O)(=O)c1ccccc1)Nc1nc2ccccc2s1,14.8
Cc1ccc(Oc2nnc(-c3cccs3)c3ccccc23)cc1C,7.2
N#Cc1c(N)n(-c2ccccc2)c(=O)c2cc([N+](=O)[O-])ccc12,14.8

# (next part)
Compound,Biofilm kill mix
Fc1ccc(Oc2ncccn2)c(F)c1,20.9
CCOc1ccc(CN2CCN(CC(O)Cn3c4ccccc4c4ccccc43)CC2)cc1 (stereo unspecified),18.6
CC(C)CC1(C(=O)NCc2ccccn2)C=CCN1C(=O)c1ccccc1 (stereo unspecified),17.9
O=C(NCCCCNC(=O)c1ccccn1)c1ccccn1,8.5
O=C(CSc1ccsc1[N+](=O)[O-])N1CCCCC1,11.3
O=C(Nc1ccc(CN2CCCCC2)cc1)c1cccc(F)c1,15.0
COc1ccc(OC(=O)c2ccc(Cl)cc2)c(C(C)=O)c1,13.8
O=C(/C=C/c1ccccc1)NNc1ccc(Cl)cc1,6.3

# Next records
Compound,Biofilm kill mix
O=C(Nc1ccc(F)cc1)c1ccc(S(=O)(=O)N2CCOCC2)o1,14.2
CCCCC(=O)Nc1cccc(C(=O)Nc2ccccc2C(=O)O)c1,23.6
COc1ccc(CNC(=O)/C=C/c2ccco2)cc1OC,15.0
CN(Cc1ccccc1)CC(O)COc1ccc(CNCc2cccnc2)cc1 (stereo unspecified),8.3
Cc1ccc(NC(=O)CN(C)CC(=O)Nc2ccccc2C(=O)Nc2ccccc2)cc1,17.3
CCCS(=O)(=O)c1c(S(=O)(=O)CCC)c2c(N)cccn2c1C(=O)c1ccc(OC)cc1,14.4
S=c1[nH]ncn1/N=C/c1cccs1,19.2
O=C1c2cccc3cccc(c23)C(=O)N1CCCN1CCN(c2ccc(F)cc2)CC1,7.3

# More compounds follow.
Compound,Biofilm kill mix
CCC(CNc1cc(OC)cc2cccnc12)NC1CCCCC1 (stereo unspecified),19.3
COc1ccc(Sc2nc(-c3ccccn3)ncc2OC)cc1,22.4
CC(C)Oc1ncnc2c1[nH]c1ccccc12,20.4
NC(N)=Nc1cc2ccccc2c2ccccc12,7.9
CC1CC(Nc2ccccc2)c2ccccc2N1C(=O)c1cccnc1 (stereo unspecified),3.2
O=C(CNC(=O)c1ccc(Br)cc1)NCC(=O)OCc1ccc(Cl)cc1,22.4
O=C(O)c1ccccc1N(Cc1ccccc1)C(=O)CO/N=C/c1ccccc1,6.0
N#C/C(=N\Nc1ccc(Br)cc1)C(=N)N1CCOCC1,2.1

# (list continues)
Compound,Biofilm kill mix
Cn1c(SCC(=O)Nc2cccc(S(=O)(=O)NC3=NCCCCC3)c2)nnc1-c1ccccc1,13.5
COc1ccc(-c2c(C#N)c(SCC(=O)c3cc4ccccc4oc3=O)nc(C)c2C(=O)Nc2ccccc2)cc1,15.1
O=C(O)c1ccc(N/N=C/C2=Cc3ccccc3OC2)cc1,14.9
Cn1c(SCC#N)nc2ccccc2c1=O,26.4
CN(C)S(=O)(=O)c1ccc(C(=O)NCC(=O)N/N=C/c2ccccc2)cc1,2.2
C/C(CC(=O)N1CCCC1)=N\NC(=O)c1cc2ccccc2cc1O,18.8
CCOc1cccc(C(=O)Nc2cccc(C(=O)NC(C)(C)C)c2)c1,15.9
CCC(NC(=O)c1ccccc1NC(=O)c1ccccc1)C(=O)NNC(=O)c1cccnc1 (stereo unspecified),20.5

# Going on with the list.
Compound,Biofilm kill mix
COc1ccc(-c2cc(C(=O)O)sc2C)cc1,7.5
Cc1cc2nnc(SCC(=O)NCC3CCCO3)n2c2ccccc12 (stereo unspecified),17.3
CC(C)OP(=O)(OC(C)C)C(O)c1cccc([N+](=O)[O-])c1 (stereo unspecified),17.1
CC(=O)OC1CC(c2cc(C(C)(C)C)c(O)c(C(C)(C)C)c2)=NO1 (stereo unspecified),21.6
CC(C)NC(=S)N1CCN(S(=O)(=O)c2cccc(C(F)(F)F)c2)CC1,-6.4
COC(=O)c1cc2occc2n1Cc1cccc(C)c1,17.1
O=C(CCCc1ccccc1)NCc1ccc(F)cc1,11.7
Cn1c(=O)n(C)c2cc(/C=N/NC(N)=S)ccc21,9.7

# The listing continues:
Compound,Biofilm kill mix
COc1ccc(C2NC(=S)NC(O)(C(F)(F)F)C2C(=O)c2cccs2)cc1 (stereo unspecified),16.6
Cc1ccccc1N(CC(=O)NC(C)(C)C)C(=O)CS(=O)CC(=O)Nc1ccc2c(c1)OCO2 (stereo unspecified),-7.2
COc1c(C(=O)NNC(=O)c2ccccc2)csc1Br,27.0
CCc1ccc(C(=O)OCC(=O)NCC(F)(F)F)cc1,10.9
CCOC(=O)CC1COc2ccccc2N1C(=O)c1ccc(F)cc1 (stereo unspecified),10.8
O=C1N=C(N2CCN(c3ccccc3)CC2)S/C1=C\c1cn[nH]c1-c1ccccc1,13.8
COc1ccc(CN2CC(=O)N(c3ccc(C)cc3)C2=S)cc1OC,6.5
O=C(CNC(=O)c1ccc(Oc2ccccc2)cc1)OCc1ccc(Br)cc1,14.6

# Further records follow.
Compound,Biofilm kill mix
COc1cc(OC)cc(C(=O)NCCNC(=O)c2ccco2)c1,14.3
COc1cc(OC)cc(C(=O)N[C@H](C(=O)Nc2ccc(S(=O)(=O)N(C)C)cc2)C(C)C)c1,12.1
COc1cc(/C=N/N2CCN(C3c4ccccc4-c4ccccc43)CC2)cc(OC)c1OC,11.4
O=Nc1c2ccc[nH]c-2c2ccc([N+](=O)[O-])cc12,3.9
CCO[C@H]1OC(C(=O)N2CCCCCCC2)=C[C@@H](c2ccc(C(F)(F)F)cc2)[C@@H]1CCCO,21.4
COC(=O)c1c(NC(=S)NN2CCOCC2)sc2c1CCCC2,12.1
CCC(C(=O)Nc1nc(C)c(C(=O)OC)s1)c1ccccc1 (stereo unspecified),13.9
CCc1ccc(-c2csc(NC(=O)Oc3ccccc3)n2)cc1,9.4

# (more compounds)
Compound,Biofilm kill mix
C=C1C(C(=O)Nc2cccc(OC)c2)C1C(=O)Nc1cccc(OC)c1 (stereo unspecified),13.4
CC(C(=O)O)c1ccc(N2Cc3ccccc3C2=O)cc1 (stereo unspecified),17.1
CN(C(=O)COC(=O)/C=C/c1cn(-c2ccccc2)nc1-c1ccc2c(c1)OCCO2)C1CCS(=O)(=O)C1 (stereo unspecified),6.3
COc1ccc(-n2nnnc2SCC(=O)c2ccc3c(c2)OCCO3)cc1,7.3
COc1ccc(/C=C/C2=CC(C)(C)NC(=S)N2)cc1,10.7
Cc1cc(C(=O)N2CCN(c3ncccc3C#N)CC2)no1,14.3

# Screening results deposited in PubChem BioAssay by PCMD.
